# miR-21 FLuc: qHTS Assay for Modulators of miRNAs and/orActivators of miR-21; HeLa miR-21 FLuc reporter, luciferase, 48 h; Potency, µM (top dose mostly 38.3 µM), for the others: at the top dose reporter change, positive = more light; 340,000 tested, under 10 active; active = well fitted rising curve with a large enough effect; inconclusive = small, poorly fitted or top-dose-only effect; inactive = no such curve, though single readings can be large or run the other way;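 also: % of control where 0% means no effect; miR-21 action dims this reporter so a rising signal means less miR-21 action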
#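 Luminescence from a firefly luciferase reporter carrying a miR-21 binding site downstream, stably expressed under a CMV promoter in HeLa cells that make miR-21 endogenously, reports miRNA modulation after 48 h compound exposure up to approximately 40uM final.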
# GLA inh pH 4.5: qHTS Assay for Inhibitors of Human alpha-Galactosidase at pH 4.5; Alpha-galactosidase A (Homo sapiens), P06280; purified enzyme, 4-MU-alpha-Gal fluorescence, pH 4.5; activity change, negative = inhibition, % at 105 µM; 230,000 tested, under 10 active; inconclusive = small, poorly fitted or top-dose-only inhibition, or a rising curve; inactive = flat fitted curve, though single readings scatter; no compound was filed as active;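 also: 0% = full activity with enzyme and -100% = basal without enzyme; dose as in the result columns while the protocol names 77 µM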
# Rango-impB inh: qHTS Assay for Inhibitors of Rango (Ran-regulated importin-beta cargo) - Importin beta complex formation | Importin subunit beta-1 (Homo sapiens), Q14974 | Rango CFP/YFP FRET sensor + importin beta, 45 min | Potency, µM (titrated, usually from 92.2 µM), without a hit: at the top dose inhibition of complex formation | 340,000 compounds, 0.031% hits | AID 540263, 2011; active = rising FRET ratio curve, often small or poorly fitted; inconclusive = mostly compound fluorescence or quenching in the first reads; inactive = flat curves in all reads;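 also: potency is read from the fitted curve at half-maximal effect; 0% = DMSO wells and 100% = buffer wells lacking importin beta; nearly all actives have a fitted effect of over 15% in size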
# Target sequence (Q14974 whole entry, looked up): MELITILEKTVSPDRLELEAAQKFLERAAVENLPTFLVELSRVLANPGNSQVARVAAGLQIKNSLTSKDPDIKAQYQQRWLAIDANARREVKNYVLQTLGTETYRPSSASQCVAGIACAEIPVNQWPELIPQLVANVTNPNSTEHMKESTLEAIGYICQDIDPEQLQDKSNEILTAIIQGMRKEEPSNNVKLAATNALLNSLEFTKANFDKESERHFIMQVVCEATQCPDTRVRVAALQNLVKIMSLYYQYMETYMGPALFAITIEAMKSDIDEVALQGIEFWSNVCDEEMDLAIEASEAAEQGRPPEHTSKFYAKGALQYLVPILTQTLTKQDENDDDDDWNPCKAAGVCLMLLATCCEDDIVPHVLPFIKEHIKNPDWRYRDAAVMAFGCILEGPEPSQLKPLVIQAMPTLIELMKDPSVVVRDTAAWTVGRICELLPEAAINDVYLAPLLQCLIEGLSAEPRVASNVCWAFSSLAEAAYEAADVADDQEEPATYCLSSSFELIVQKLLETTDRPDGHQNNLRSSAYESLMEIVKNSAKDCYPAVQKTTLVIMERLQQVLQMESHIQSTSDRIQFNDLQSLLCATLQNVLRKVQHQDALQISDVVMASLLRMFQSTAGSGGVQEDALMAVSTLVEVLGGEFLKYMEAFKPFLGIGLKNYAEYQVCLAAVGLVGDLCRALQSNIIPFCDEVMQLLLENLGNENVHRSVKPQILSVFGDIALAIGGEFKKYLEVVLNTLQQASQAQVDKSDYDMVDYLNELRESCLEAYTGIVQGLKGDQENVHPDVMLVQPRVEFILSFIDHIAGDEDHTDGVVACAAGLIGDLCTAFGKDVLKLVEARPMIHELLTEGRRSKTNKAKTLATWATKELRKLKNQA
#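 FRET biosensor (snurportin 1 IBB flanked by EYFP and cerulean), 50 nM, with compound 5 min, then 0.125 microM importin beta in PBS, 1 mM DTT, 0.02% Tween-20, 0.1% BSA. CFP/YFP ratio read after 45 min at room temperature; pre-read flags interference.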
# Rango dissoc inh: qHTS Assay for Inhibitors of RanGTP induced Rango (Ran-regulated importin-beta cargo) - Importin beta complex dissociation. Potency, µM (doses to about 46.1 µM), inactives show at the top dose activity change, negative = inhibition. Snurportin-1 (Homo sapiens) + GTP-binding nuclear protein Ran (Homo sapiens) + Importin …. Biochemical FRET Rango-importin beta, RanGTP-induced dissociation. 340,000 compounds, 0.071% hits; active means falling FRET ratio curve, often poorly fitted, with flat reads before Ran was added; inconclusive means other falling curves, or compound fluorescence or quenching; inactive means flat or rising ratio curve;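 also: potency is read from the fitted curve at half-maximal effect; % of control where 0% means no effect; nearly all actives have a fitted effect of over 45% in size; -100% = wells without RanGTP and RCC1; the record marks most hits as doubtful in a second field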
#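 Compounds sat 5 min at room temperature with 0.1 uM Rango biosensor plus 0.25 uM importin beta, then FRET pre-read. RanGTP-RCC1 (0.6 uM Ran, 2mM GTP, 0.2 uM RCC1) added for 45 min, and the CFP/YFP post-read measured blocked complex dissociation.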
# The depositor's hits bear a star; ? = inconclusive; . = not tested or not shown. Only part of the results is shown; rates above refer to the full screens.
SMILES,miR-21 FLuc,GLA inh pH 4.5,Rango-impB inh,Rango dissoc inh
O=C(NCCCN1CCCCC1)C1CCN(S(=O)(=O)N2CCC3(CC2)OCCO3)CC1,-4%,.,1.5%,1%
CC[C@]12c3[nH]c4cc(CCC(=O)N(C)C)ccc4c3CCN1C(=O)[C@@H](CC(=O)NC/C=C(\C)CCC=C(C)C)C[C@@H]2C(=O)N1CCN(C(=O)c2ccco2)CC1,.,.,7.7%,-1%
CS(=O)(=O)N1CCc2cc(S(=O)(=O)NCCNS(=O)(=O)c3ccc4c(c3)CCN4S(C)(=O)=O)ccc21,-1%,5,0.6%,0%
CCOC(=O)CCNC(=O)N1CCCC(C(=O)c2ccccc2SC)C1 (stereo unspecified),-11%,2,-2.0%,4%
CC(=O)c1ccc(N(CC(=O)NC2CCCCC2)C(=O)c2csnn2)cc1,-12%,.,0.5%,1%
COc1ccc(OC)c(S(=O)(=O)N2CCN(C(=O)c3ccco3)CC2)c1,-8%,.,0.9%,0%
O=C(CCC1CCCN(C(=O)Cc2cccc(F)c2)C1)N1CCN(c2ccccn2)CC1 (stereo unspecified),-65%,2,0.4%,2%
COc1cccc(OCCCN2CCCCC2)c1,0%,-5,-0.3%,-19%
Cc1ccc(CC(=O)Nc2cc(C)on2)cc1,-7%,.,0.3%,-4%
Cc1[nH]c(C)c(S(=O)(=O)N2CCN(c3ccccc3)CC2)c1C(=O)N1CCCCC1,0%,.,3.8%,18%
CC(c1ccccc1)n1c(-c2ccncc2)n[nH]c1=S (stereo unspecified),1%,2,4.5%,3%
COc1ccc(C(CNC(=O)C(=O)Nc2ccc3c(c2)OCCO3)N2CCN(C)CC2)cc1 (stereo unspecified),.,.,-1.4%,-4%
CCCN1C(=O)S/C(=C/c2ccc(N3CCOCC3)o2)C1=O,-23%,-17,?,?
CCn1c(SCC(=O)NNC(=O)Cc2ccccc2)nnc1-c1ccccc1,4%,-3,2.3%,-7%
CCNc1nc(NCC)n2c(SCC(=O)c3ccccc3F)nnc2n1,-3%,5,-0.9%,10%
C=CCN1C(=O)c2ccc(C(=O)NCCc3ccc(F)cc3)cc2C1=O,.,.,-3.5%,19%
CNCc1ccccc1Sc1ccc(O)c(O)c1,?,-19,2.0%,-5%
COC(=O)c1c(NC2=NS(=O)(=O)c3ccccc32)sc2c1CCC(C(C)(C)C)C2 (stereo unspecified),.,.,7.3%,-6%
Cn1ccnc1SCC(=O)c1cccc(C(F)(F)F)c1,-47%,.,-1.4%,-13%
CC(=O)c1cccc(CN2CCN(CC=C(C)C)C(CCO)C2)c1 (stereo unspecified),-1%,-1,3.3%,28%

# Ordered by the number under Rango-impB inh (smallest number first): seven from the list above
Compound | Rango-impB inh
COc1ccc(C(CNC(=O)C(=O)Nc2ccc3c(c2)OCCO3)N2CCN(C)CC2)cc1 (stereo unspecified) | -1.4%
CCNc1nc(NCC)n2c(SCC(=O)c3ccccc3F)nnc2n1 | -0.9%
COc1cccc(OCCCN2CCCCC2)c1 | -0.3%
CS(=O)(=O)N1CCc2cc(S(=O)(=O)NCCNS(=O)(=O)c3ccc4c(c3)CCN4S(C)(=O)=O)ccc21 | 0.6%
CC(=O)c1cccc(CN2CCN(CC=C(C)C)C(CCO)C2)c1 (stereo unspecified) | 3.3%
Cc1[nH]c(C)c(S(=O)(=O)N2CCN(c3ccccc3)CC2)c1C(=O)N1CCCCC1 | 3.8%
CC(c1ccccc1)n1c(-c2ccncc2)n[nH]c1=S (stereo unspecified) | 4.5%

# Next part:
SMILES,miR-21 FLuc,GLA inh pH 4.5,Rango-impB inh,Rango dissoc inh
N=c1c2c(ncn1CCCO)Oc1c(ccc3ccccc13)C2c1ccccc1 (stereo unspecified),13%,-10,0.6%,?
Cc1[nH]c(=O)[nH]c(=O)c1/C=N/NC(=O)[C@H](C)NC(=O)OC(C)(C)C,1%,8,-0.8%,2%
Cc1ccc(-n2nnnc2SCc2ccc(C(=O)O)cc2)cc1C,-13%,.,2.4%,19%
CC1(c2nnc(Cc3ccccc3)o2)CC(c2c(Cl)cccc2Cl)=NO1 (stereo unspecified),.,.,-1.5%,2%
O=S(=O)(NN=C1CCCCCCC1)c1ccc(Br)cc1,-9%,1,-0.4%,10%
Cc1ccc(-n2c(C)nn(Cc3ccc([N+](=O)[O-])cc3)c2=O)cc1,1%,3,0.3%,8%
CC1CCN(C(=O)c2cc(-c3ccc(Cl)c(Cl)c3)on2)CC1,-15%,-7,1.6%,-9%
CCc1nc(SCC(=O)NCC2CCCO2)c2oc3ccccc3c2n1 (stereo unspecified),-3%,2,2.1%,-18%
O=C(c1ccc2c(c1)N(Cc1ccccc1)C(=O)CS2)N1CCOCC1,-2%,-5,1.9%,5%
C=C1CCN([C@H](C(=O)Nc2ccc(OC)cc2)C(C)C)S(=O)(=O)c2ccccc21,17%,-4,1.9%,4%
CCOC(=O)c1c(C)[nH]c(C(=O)C(C)OC(=O)c2cccc(OCc3c(C)noc3C)c2)c1C (stereo unspecified),20%,6,-0.2%,-12%
COc1cccc(CNC(=S)NC2CCCC2)c1,-10%,-15,-1.4%,-1%
COc1ccccc1NC(=O)CNC(=O)c1ccccc1C,-2%,-3,2.3%,-8%
CS(=O)(=O)N(CC(=O)N/N=C/c1ccccn1)c1ccc(Oc2ccccc2)cc1,3%,3,0.0%,34%
CNC(=O)c1c(NC(=O)c2ccc(N3C(=O)CCC3=O)cc2)sc2c1CCCC2,2%,-10,-1.9%,-2%
CCOP(=O)(OCC)C(Nc1cccc([N+](=O)[O-])c1)c1ccc(OC)cc1 (stereo unspecified),4%,-21,2.6%,11%
Cc1cc(C)n(-c2ccc(NC(=O)C3CCCCN3C(=O)c3cccs3)cc2)n1 (stereo unspecified),7%,.,-5.1%,-4%
CC(=O)c1cccc(N(CC(=O)NC2CCCC2)C(=O)c2ccc(C)s2)c1,1%,.,1.7%,8%
COc1ccc(C(=O)Nc2ccc3[nH]ccc3c2)cc1,.,.,-0.6%,2%
Cc1nnc(Sc2c(-c3ccccc3)c3ccc(Cl)cc3[nH]c2=O)s1,-8%,0,2.7%,8%
O=[N+]([O-])c1ccc2c(c1)CCN2,.,.,5.7%,-15%
Cc1c([N+](=O)[O-])cc(C(=O)Oc2cccc(C(=S)N3CCOCC3)c2)cc1[N+](=O)[O-],-8%,-1,0.4%,-12%
O=C1NC2=C(C(=O)CCC2)C(c2ccccc2[N+](=O)[O-])N1 (stereo unspecified),4%,.,?,-14%
CCOc1ccc(C(=O)NC(C(=O)NCCc2ccc(OC(F)F)cc2)C(C)C)cc1 (stereo unspecified),-1%,.,-1.4%,-10%
COC(=O)c1ccccc1SC1CC(=O)N(c2ccccc2)C1=O (stereo unspecified),-4%,21,0.6%,2%
CCCn1c(SCC(=O)Nc2ccc(Cl)cc2)n[nH]c1=O,16%,4,-1.0%,-10%
CCOC(=O)CN1N=C(c2ccc(Cl)s2)CSC1=O,-3%,-1,2.8%,11%
O=S(=O)(Cc1ccccc1)N1CCC(N2CCN(c3ccccc3)CC2)CC1,0%,1,0.2%,18%
COc1ccc(-c2ncncc2-c2ccc(OC)c(OC)c2)c(O)c1,-31%,.,0.3%,0%
O=C(NCCCN1CCOCC1)c1cc(-c2ccc(O)cc2)on1,-12%,4,?,12%
CC(C)(C)C(=O)Nc1ccc(C(=O)NNC(=O)c2ccccc2)cc1,-28%,-6,-0.2%,-5%
COCCN(CC(=O)Nc1cccc(C)c1C)C(=O)c1cc(-c2ccncc2)nc2ccccc12,.,.,0.3%,-16%
COC(=O)c1sc2nc(CN3CCN(c4cccc(C(F)(F)F)c4)CC3)[nH]c(=O)c2c1C,-10%,4,-0.1%,-19%
O=C1N/C(=C/c2ccc(N3CCCC3)cc2)C(=O)N1c1ccccc1,-31%,-2,?,?
O=C(c1nc2ccc(Cl)cn2c1CN1CCC[C@H]1CO)N1CCCCCCC1,-4%,.,?,?
Cc1csc(OCc2ccc(C#N)cc2)n1,-2%,3,-1.5%,15%
COc1ccc(OCC(=O)Nc2ccc3c(c2)nc(CCN2CCOCC2)n3C)cc1,-8%,8,0.0%,-3%
CC(=O)c1cccc(NC(=O)CNC(=O)c2cc3ccccc3o2)c1,-4%,.,-0.3%,?
CCOC(=O)c1sc(-c2ccc(F)cc2)cc1N,-60%,1,0.0%,-4%
CC(C)C(=O)N1CCN(c2ccccc2NC(=O)Cc2ccc(Cl)cc2)CC1,7%,3,-1.8%,1%

# Arranged by SMILES length (low to high): some entries from above
SMILES,miR-21 FLuc,GLA inh pH 4.5,Rango-impB inh,Rango dissoc inh
CCOC(=O)CN1N=C(c2ccc(Cl)s2)CSC1=O,-3%,-1,2.8%,11%
CC(=O)c1cccc(CN2CCN(CC=C(C)C)C(CCO)C2)c1 (stereo unspecified),-1%,-1,3.3%,28%
O=C1NC2=C(C(=O)CCC2)C(c2ccccc2[N+](=O)[O-])N1 (stereo unspecified),4%,.,?,-14%
COCCN(CC(=O)Nc1cccc(C)c1C)C(=O)c1cc(-c2ccncc2)nc2ccccc12,.,.,0.3%,-16%

# The main list resumes, starting 2 compounds before the break.
SMILES,miR-21 FLuc,GLA inh pH 4.5,Rango-impB inh,Rango dissoc inh
CCOC(=O)c1sc(-c2ccc(F)cc2)cc1N,-60%,1,0.0%,-4%
CC(C)C(=O)N1CCN(c2ccccc2NC(=O)Cc2ccc(Cl)cc2)CC1,7%,3,-1.8%,1%
CCC(C)c1ccc(NC(=S)Nc2ccc(OC)cc2C)cc1 (stereo unspecified),-8%,8,-0.1%,-3%
COc1ccc(-c2cc(C(=O)N(C)CC(=O)Nc3ccccc3Cl)c3ccccc3n2)cc1OC,.,.,-2.7%,6%
Cc1cccc(OCCCC(=O)O)c1C,0%,-4,-3.7%,1%
COc1ccc(-c2noc(CSc3nnc(CCc4ccccc4)n3-c3ccccc3)n2)cc1OC,8%,-7,-3.5%,-16%
O=c1[nH]c(SCc2nc3ccccc3c(=O)n2-c2ccccc2C(F)(F)F)nc2ccccc12,-8%,-10,0.0%,1%
O=C1C(Oc2ccccc2)C(c2cccs2)N1Cc1ccc2c(c1)OCO2 (stereo unspecified),-12%,6,-0.5%,0%
COc1ccc(CCNC(=O)C2CCCN(S(C)(=O)=O)C2)cc1 (stereo unspecified),-1%,.,-0.8%,6%
CCOc1ccc(S(=O)(=O)N(C)c2ccc(OCC(=O)NCC3CCCO3)cc2)cc1 (stereo unspecified),1%,2,?,-8%
O=S(=O)(Nc1ccc(C(F)(F)F)cc1)c1cnc[nH]1,-7%,-7,0.5%,23%
O=C(NCc1ccccc1Cl)c1ccc2c(=O)n(CC3CCCO3)c(=S)[nH]c2c1 (stereo unspecified),-11%,.,0.8%,8%
O=C(NCc1cccs1)c1cc(-c2ccccc2)nc2ccccc12,1%,-10,0.9%,6%
Cc1ccc(S(=O)(=O)N2CCCCC2)cc1C(=O)NCCc1ccccc1,2%,.,-0.4%,0%
COc1cc2c(cc1OC)C(c1ccc(SC)cc1)CC(=O)N2 (stereo unspecified),-4%,.,-3.5%,12%
COc1ccc(-c2nnc3ccc(SCC(=O)Nc4nccs4)nn23)cc1OC,-14%,2,2.1%,?
CCN(CC)CCCN(Cc1cc2cc3c(cc2[nH]c1=O)OCO3)C(=S)Nc1ccccc1,-4%,-24,2.2%,-4%
Cc1ccc(S(=O)(=O)c2ncccc2N)cc1,1%,.,3.1%,0%
COc1ccc(C(=O)N2CCCC(c3nc(-c4ccc(OC)c(OC)c4)no3)C2)c(OC)c1 (stereo unspecified),-6%,-2,-1.0%,-2%
COc1ccccc1C1CC(c2ccc(NS(C)(=O)=O)cc2)=NN1S(=O)(=O)c1ccccc1 (stereo unspecified),-3%,.,-4.8%,-3%

# Compound activity from PubChem.
